Source: PubChem (National Center for Advancing Translational Sciences (NCATS))
hNpr1 antagonist: antagonists of human natriuretic peptide receptor Npr1; AID 1347048; HEK293 hNpr1 GloSensor cGMP, ANP-stimulated luminescence; P16066; hit rate 1.6% among 76,000; Potency, µM (series often up to 46.3 µM), inactives show at the highest dose activity change, negative = inhibition, hits mostly inhibitors; active = well fitted inhibition curve with a large enough effect; inconclusive = small, poorly fitted or top-dose-only effect; inactive = no such curve, though single readings can be large or run the other way;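 also: nearly all actives have a fitted effect of over 60% in size; nearly all hits also lower the signal before the agonist is added; a reference antagonist and vehicle were the controls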
Target sequence (P16066 whole entry, looked up): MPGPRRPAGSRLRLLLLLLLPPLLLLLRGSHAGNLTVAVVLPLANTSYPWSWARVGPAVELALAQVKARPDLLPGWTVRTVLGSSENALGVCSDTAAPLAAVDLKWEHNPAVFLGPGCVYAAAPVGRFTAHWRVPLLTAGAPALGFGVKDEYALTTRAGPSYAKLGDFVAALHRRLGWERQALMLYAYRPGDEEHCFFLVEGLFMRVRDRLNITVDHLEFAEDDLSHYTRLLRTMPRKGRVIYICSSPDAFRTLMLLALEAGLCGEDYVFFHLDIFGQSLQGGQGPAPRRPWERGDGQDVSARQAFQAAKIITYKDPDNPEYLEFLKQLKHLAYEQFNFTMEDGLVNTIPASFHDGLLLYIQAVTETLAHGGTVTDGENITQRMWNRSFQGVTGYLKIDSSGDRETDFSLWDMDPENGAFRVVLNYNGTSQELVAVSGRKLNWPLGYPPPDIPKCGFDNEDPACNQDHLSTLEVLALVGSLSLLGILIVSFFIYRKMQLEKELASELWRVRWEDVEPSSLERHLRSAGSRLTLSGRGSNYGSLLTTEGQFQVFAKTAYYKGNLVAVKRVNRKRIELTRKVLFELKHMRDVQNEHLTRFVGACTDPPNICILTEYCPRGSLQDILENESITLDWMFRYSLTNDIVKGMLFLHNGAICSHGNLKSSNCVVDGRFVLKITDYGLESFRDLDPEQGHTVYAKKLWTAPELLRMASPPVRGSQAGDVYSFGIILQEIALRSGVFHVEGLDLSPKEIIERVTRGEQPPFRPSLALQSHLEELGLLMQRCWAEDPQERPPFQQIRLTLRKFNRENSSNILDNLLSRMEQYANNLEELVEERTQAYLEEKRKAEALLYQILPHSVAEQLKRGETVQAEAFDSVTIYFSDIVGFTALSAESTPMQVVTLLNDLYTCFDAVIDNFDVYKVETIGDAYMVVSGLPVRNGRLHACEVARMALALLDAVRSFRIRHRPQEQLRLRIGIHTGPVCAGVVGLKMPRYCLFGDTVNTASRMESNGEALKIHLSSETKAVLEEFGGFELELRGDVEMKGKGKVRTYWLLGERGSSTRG
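HEK293 cells stably expressing human Npr1 and cGMP GloSensor pGS-40F, loaded 2 h with 2% GloSensor reagent, given compound 30 min at room temperature. Luminescence read before and 20 min after 0.1 nM hNppA.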
* = called active by the depositor; u = inconclusive; [ ] = remark or other dose. % is scaled to controls: 0 for no effect and ±100 for the full control effect; potency is read from the fitted curve at half-maximal effect. Only part of the results is shown, so the mix of outcomes need not match the whole.

molecule	hNpr1 antagonist
O=C(c1ccncn1)N1CC(F)(F)C[C@H]1c1nc(C2CC2)no1	10%
CCc1nncn1C1CCN(S(=O)(=O)c2ccc(C)c(Cl)c2)CC1	-13%
O=C(Cc1ccc(F)cc1)NC1CCN(c2cn[nH]c(=O)c2)CC1	5%
Cn1nc(C(=O)NC2CCCc3c2[nH]c2ccccc32)c2ccccc2c1=O (stereo unspecified)	-18%
CCOc1ccc(CC(=O)N2CCCN(S(C)(=O)=O)c3ccccc32)cc1OCC	7%
COCCC1(N(C)C)CCN(C(=O)c2ccnn2C)CC1	-1%
NC(=O)CO[C@@H]1CO[C@H]2[C@@H]1OC[C@@H]2NC(=O)NCc1ccccc1	-4%[70.6 µM]
CC(C)NC(=O)N1CCN(C(=O)NC(C)C)[C@@H](C(=O)N[C@@H](CC2CCCCC2)C(N)=O)C1	4%
O=C(Cn1c2c(c(=O)n1Cc1ccccc1)CCN(Cc1ccccc1)C2)NCc1cnccn1	-2%
O=C(OCc1ccccc1)N1CCC2(CC1)C(=NC1CCCC1)NC(=O)N2c1cc(F)cc(F)c1	15%
O=C(N[C@H]1CO[C@H]2[C@@H]1OC[C@@H]2Nc1nccc(C2CCCC2)n1)c1ccccc1	28µM*
CN(C)c1cccc(C(=O)N[C@@H]2COCC[C@H]2Oc2ccc(CO)cc2)c1	6%
C=CCn1nc(C)c(CN2CCC(Oc3ccccc3OC)(C(=O)O)CC2)c1C	1%
COCCNC(=O)CC[C@]12CC[C@](C)(O)C[C@H]1C(C)(C)C[C@@H]2NC1CCN(C(C)=O)CC1	1%
O=C(c1ccc2c(c1)OCO2)N1CCCN(c2cc(-c3ccc(F)cc3)[nH]n2)CC1	-19%
c1cc2nc(C3CCNC3)[nH]c2cn1 (stereo unspecified)	8%[70.6 µM]
Cc1ccc2c(c1)N1C(=O)OC[C@@H]1CCN(Cc1ccccn1)C2	3%[70.6 µM]
Cc1noc(C)c1-c1cc2c(cc(C)n2CCN(C)C)c(-c2ccsc2)n1	4%[70.6 µM]
C[C@]1(O)CCN(C(=O)c2cnc(C3CC3)nc2)C[C@@H]1O	3%
Cc1ccc(S(=O)(=O)NC[C@H]2O[C@@H](CO)[C@@H](O)[C@H]2N2CCN(c3ccccn3)CC2)cc1	-2%
COc1ccc(CN2CCCC(c3cc(=O)[nH]c(C)n3)C2)c(OC)c1C (stereo unspecified)	5%
COc1cc(CNC(=O)C2Cn3cccc3C(=O)N2Cc2cccnc2)cc(OC)c1 (stereo unspecified)	0%
COc1ccc(NC(=O)CN2C(=O)NC(c3ccc(Cl)cc3)C3=C2COC3=O)c(OC)c1 (stereo unspecified)	-1%
CN(Cc1cccnc1)Cc1nc(C2(O)CCN(C3CCCC3)CC2)cs1	-3%[70.6 µM]
CCCc1cc(CN(C)C(=O)CC2C(=O)NCCN2CCCc2ccccc2)[nH]n1 (stereo unspecified)	-8%

A second format for some results above.
CN(C)c1cccc(C(=O)N[C@@H]2COCC[C@H]2Oc2ccc(CO)cc2)c1
- hNpr1 antagonist: 6%
C=CCn1nc(C)c(CN2CCC(Oc3ccccc3OC)(C(=O)O)CC2)c1C
- hNpr1 antagonist: 1%

Further results
molecule	hNpr1 antagonist
COc1ccc(Cn2c(C3CCN(C(=O)c4cc(Cl)ccc4F)CC3)n[nH]c2=O)cc1	-6%
CN1CCC2(CCC1=O)CN(S(=O)(=O)c1cn(C)cn1)CCN2C (stereo unspecified)	0%
NCC1CCCN(Cc2ccc(-c3nc(-c4ccncc4)cc(=O)[nH]3)cc2)C1 (stereo unspecified)	1%
Cc1ccccc1C(=O)N1CC[C@](O)(c2ccccc2)[C@H](N(C)C)C1	0%
Cc1ccccc1-c1onc(C)c1C(=O)NCc1ccc(F)cc1F	-2%
O=C1NCCCCCCN(C(=O)c2cccnc2)[C@H]2C[C@H](c3nc(Cc4ccccc4)no3)C[C@@H]12	-7%
CCOc1ccc(CN2CCC3(CC2)CC(O)CCO3)cc1 (stereo unspecified)	10%
Cc1ccncc1C(=O)N1CCC(Cn2c(C)cnc2-c2cccnc2)CC1	1%
COc1cc(F)ccc1-c1cc2c(ccn2C)c(C(=O)NCCc2cnc[nH]2)n1	2%[70.6 µM]
COc1ccc(NC(=O)N2CCCC(c3noc(COc4ccccc4F)n3)C2)c(C)c1 (stereo unspecified)	u
O=C(CC1CCCC1)N1CCC(c2noc(-c3ccncc3)n2)C1 (stereo unspecified)	5%
CN(C)c1ccc(-c2nnc([C@H]3CCN(C(=O)c4ccccn4)C3)o2)cc1	-15%[70.6 µM]
O=C(O)CCC1CCN(S(=O)(=O)c2ccccc2F)CC1	-1%
CN1c2cc(C(=O)Nc3ccc(Cl)cc3)ccc2C(=O)N2CCCCC21 (stereo unspecified)	0%
CN1Cc2cccn2CC1CNC(=O)c1ccsc1 (stereo unspecified)	-17%
COCCOC1CCOC2(CCN(C(=O)c3cc(-c4ccc(F)cc4)n[nH]3)CC2)C1 (stereo unspecified)	-16%
Oc1ccccc1CN1CCC(O)(c2csc(CN3CCN(c4ccccn4)CC3)n2)CC1	-20%
CN(C)C[C@@H]1CN(c2ccncn2)C[C@H]1NC(=O)c1ccc(C#N)cc1	0%
COc1ccc(CN2C[C@H]3CN(Cc4ccc(OC(F)(F)F)cc4)CCN3C2=O)cc1	u
CCCC1(C2CCN(C(=O)C(OC)c3ccccc3)CC2)NC(=O)N(CCc2cccs2)C1=O (stereo unspecified)	3%
CO[C@H]1C[C@@H](O)C12CCN(C(=O)c1ccc(OC(F)F)cc1)CC2	1%
O=C(CCc1ccccc1)NCCC1CCN(C(=O)Nc2cccc(F)c2)CC1	-11%
O=C(Cc1cccc(Cl)c1)N1CCC(n2cc(-c3nc(C4CC4)no3)nn2)C1 (stereo unspecified)	-5%
O=C(c1c[nH]c2ccccc12)N1CCC(Cc2nncn2CC2CC2)C1 (stereo unspecified)	-1%
CN(Cc1cccc(F)c1)Cc1cccn1C	15%[70.6 µM]

New compounds follow.
molecule	hNpr1 antagonist
O=S(=O)(Cc1ccccc1F)N1CCC(C2CCNC2)CC1 (stereo unspecified)	9%
COc1ccc(CNC(=O)N2CCCCC2c2nc(-c3cnccn3)n[nH]2)cc1 (stereo unspecified)	2%
Cn1cc(-c2cnc(Nc3cccnc3)c3c2CCO3)cn1	1%[70.6 µM]
CC(C)CCN1CCOc2cc(C(=O)N(C)c3cccnc3)ccc2C1	-15%[70.6 µM]
Cn1nc2n(c1=O)CCN(C(=O)c1cscn1)CC2	0%
CC(C)(C)CN1CC[C@H]2COC(=O)N2c2cc(F)ccc2C1	1%[70.6 µM]
COCCNC(=O)C[C@@H]1C[C@H]2O[C@H](CNC3CCC(F)(F)CC3)[C@@H](O)[C@H]2O1	4%[70.6 µM]
CCCNC(=O)C(NC(=O)c1ccccc1)C1CCN(C(=O)c2ccccc2F)CC1 (stereo unspecified)	-5%
N#Cc1ccccc1S(=O)(=O)N[C@H]1CO[C@H]2[C@@H]1OC[C@@H]2n1nnnc1-c1ccccc1	-3%
O=C(NCCc1ccccc1)C1CCCN(C2CCN(Cc3ccccc3F)CC2)C1 (stereo unspecified)	-17%
CN1CCCC1c1nc(C2CN(C(=O)CCc3nc4ccccc4[nH]3)C2)no1 (stereo unspecified)	1%
CCC(O)c1cc2n(n1)CCN(C(=O)c1cn(-c3ccccc3)nn1)C2 (stereo unspecified)	5%
COCC(=O)NC[C@@H]1C=C(C)[C@H](CC(=O)NC2CCCC2)C[C@H]1C(C)C	4%[70.6 µM]
COCCNC(=O)[C@@H]1C[C@@H](O)CN1C1CCN(C(=O)C2CCC2)CC1	8%
COc1cccc(C(=O)N(C)C2CCCc3ccccc32)c1 (stereo unspecified)	2%[70.6 µM]
CN(C)C(=O)c1cn(C2CNC2)nn1	1%
CC1CCc2nn3ccn(CC(=O)NCc4ccccc4)c(=O)c3c2C1 (stereo unspecified)	4%
O=C(NC1CCN(c2cc(-c3ccc(F)cc3)[nH]n2)C1)c1ccc(F)c(F)c1 (stereo unspecified)	-22%
COc1ccc(C2Cn3nnc(C(=O)N4CCC(C(=O)NCc5ccc(F)cc5)CC4)c3CO2)cc1 (stereo unspecified)	-9%
COc1nccc(N2CCC(CC(=O)NCCN3CCCCC3)CC2)n1	2%
O=C(NCC1CCOCC1)c1ccc(C(F)(F)F)cc1	0%
C=CCn1cc2c3c(cccc31)[C@H](CC(C)C)N[C@H](C(=O)N1CCOCC1)C2	-4%[70.6 µM]
COCCOCC(=O)N1CCC2(CC1)CC(N1CCCCC1)CCO2 (stereo unspecified)	10%
Cc1nn(C)c(C)c1S(=O)(=O)N1C[C@@H](NS(C)(=O)=O)[C@H](C(C)C)C1	4%
COc1ccccc1C(=O)NC[C@@H]1C=C(C)[C@H](Cc2nc3ccncc3[nH]2)C[C@H]1C(C)C	-19%[70.6 µM]

The final 3 records of the part before come first, to join the parts:
structure | hNpr1 antagonist
COCCOCC(=O)N1CCC2(CC1)CC(N1CCCCC1)CCO2 (stereo unspecified) | 10%
Cc1nn(C)c(C)c1S(=O)(=O)N1C[C@@H](NS(C)(=O)=O)[C@H](C(C)C)C1 | 4%
COc1ccccc1C(=O)NC[C@@H]1C=C(C)[C@H](Cc2nc3ccncc3[nH]2)C[C@H]1C(C)C | -19%[70.6 µM]
COCCN1C(=O)CC[C@]2(C(=O)NCc3ccc(OC)c(OC)c3)CCCC[C@@H]12 | 1%
COc1cccc(CN2CCOC[C@H](Oc3ccccc3)C2)c1 | 6%[70.6 µM]
COCCN1C(=O)c2cccn2CC1CNC(=O)c1cccc2nccnc12 (stereo unspecified) | 1%
CC(C)Oc1cccc(-c2nc(C(=O)NCc3ccccc3)cs2)c1 | u
O=C(CN1C(=O)NC2(CCCCC2)C1=O)NCCC1=CCCCC1 | 10%
Cc1ccc(C)c(OCC(=O)N[C@H]2CCOC[C@H]2C2CCOCC2)c1C | 1%
COc1ccc(Cl)cc1C(=O)N1CCC(COc2ccc3c(cnn3CCC(=O)O)c2)CC1 | -1%
COc1ccccc1-c1[nH]nc2ncc(-c3ccnn3C)nc12 | 0%[70.6 µM]
O=C(NCc1cccnc1)[C@@H]1C[C@@H](c2ccc(F)cc2)N(Cc2ccccc2)C1 | 1%[70.6 µM]
CNC(=O)Nc1ccc(C)n(CC(=O)NCc2ccccc2F)c1=O | 6%
Cn1nnc(-c2ccc(C(=O)N3CCCC4(CCNCC4)CC3)cc2)n1 | -1%
O=C(NCc1ccccc1)C1=NO[C@@H]2CN(Cc3cccc(F)c3F)C[C@H]12 | 7%[70.6 µM]
COc1ccccc1OC1(C(=O)O)CCN(C(=O)CC2C=CCC2)CC1 (stereo unspecified) | 23%
O=C(c1ccc(C(F)(F)F)cc1)N1CCN(C2CCN(Cc3ccccn3)C2=O)CC1 (stereo unspecified) | -9%
O=C(c1cccs1)N1CCCn2cc(-c3ccccc3F)nc21 | -4%
O=C(CN1CC2CC(C1)[C@H]1CCCC(=O)N1C2)N1CCOCC1 (stereo partly specified) | 2%
O=C(c1cc(F)ccc1F)N1CCC(Cc2nc(-c3ccc(F)cc3)no2)CC1 | 3.2µM*
O=C(NC1CCN(C(=O)N2CC3CC(C2)[C@H]2CCCC(=O)N2C3)CC1)c1n[nH]c(=O)c2ccccc12 (stereo partly specified) | -2%
Cc1cnc(C2CCOCC2)n1C1CCCN(C(=O)CCc2c[nH]c3ccccc23)C1 (stereo unspecified) | 5%
CN(Cc1ccnn1C)C1CCOc2ccccc21 (stereo unspecified) | 29%[70.6 µM]
O=C(O)[C@H]1C[C@@H](C(=O)NCc2ccncc2)CN(C2CCOCC2)C1 | 4%
Cc1noc(C)c1S(=O)(=O)N1CCC(C(=O)N2CCCC2c2nc(C3CCOCC3)no2)CC1 (stereo unspecified) | -10%
CCCNC(=O)N1CCC2(CC1)CC(c1ccccc1)C(=O)N2C (stereo unspecified) | 11%
CN1C(=O)c2cncnc2OCC1CNC(=O)c1ccc(Cl)cc1 (stereo unspecified) | 0%[70.6 µM]
CN(C)C[C@@H]1CN(S(C)(=O)=O)C[C@H]1NC(=O)c1ccc(Cl)s1 | 0%

The list continues.
structure | hNpr1 antagonist
COc1cc(F)ccc1-c1cn(C)c(=O)n2cc(CN3CCNC(=O)C3)nc12 | 1%[70.6 µM]
c1ccc(Cn2cc(CNc3ncncn3)cn2)cc1 | -1%
O=C(c1cccnn1)N1C[C@H]2CN(C3CCOCC3)C[C@@]2(C(=O)O)C1 | 6%
Cc1ccc(Cn2c(C3CCN(C(=O)c4ccc(C)cc4)CC3)n[nH]c2=O)cc1 | 2%
Cc1ccccc1CC(=O)N1CCC2(CC1)N(C)C(=O)CS2(=O)=O | 2%
Cc1cccc(N(C)C(=O)Cn2cccc2-c2nc(-c3ccccc3)no2)c1 | -2%
O=C(Nc1ccc(Cl)cc1)c1nc2c(o1)CCN(Cc1cccc(O)c1)CC2 | 2µM*
COCCNc1cc(-c2noc([C@@H]3CCCN3C3CCN(C(C)=O)CC3)n2)ccn1 | 0%[70.6 µM]
CC(C)N[C@@H](Cn1ccc(=O)[nH]c1=O)C(=O)O | 4%[70.6 µM]
COCCNC(=O)[C@@H]1C[C@H](Oc2cccnc2)CN1C(=O)c1cccs1 | 1%

In the list so far, these have a thiophene ring, fused or not:
structure | hNpr1 antagonist
Cc1noc(C)c1-c1cc2c(cc(C)n2CCN(C)C)c(-c2ccsc2)n1 | 4%[70.6 µM]
CN1Cc2cccn2CC1CNC(=O)c1ccsc1 (stereo unspecified) | -17%
CCCC1(C2CCN(C(=O)C(OC)c3ccccc3)CC2)NC(=O)N(CCc2cccs2)C1=O (stereo unspecified) | 3%
O=C(c1cccs1)N1CCCn2cc(-c3ccccc3F)nc21 | -4%
CN(C)C[C@@H]1CN(S(C)(=O)=O)C[C@H]1NC(=O)c1ccc(Cl)s1 | 0%
COCCNC(=O)[C@@H]1C[C@H](Oc2cccnc2)CN1C(=O)c1cccs1 | 1%
